High-throughput results as filed in PubChem BioAssay.
NPYLR7 agonist: agonists of mosquito NPYLR7 receptor, primary screen, cell-based, Aedes aegypti, calcium fluorescence, mosquito biting behavior; Aedes aegypti neuropeptide Y-like receptor 7 (NPYLR7); HEK293T NPYLR7/Galpha15, GCaMP6s calcium fluorescence; activation, % at 10 µM; 0.15% of 270,000 active; in the data active means activation above about 40%;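 further: 0% = vehicle and 100% = reference agonist at the receptor; some compounds past the cut are filed as inactive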
NPYLR7 agonist max-min: further read-out of NPYLR7 agonist, marked with its call; activation, %; measured here: Max-Min RFU normalised activation; some inactives read as strong as hits;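 span of the calcium signal over five minutes; 0% = vehicle and 100% = native peptide agonist; compound fluorescence can raise it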
Starred values were filed as active, the others as inactive; & = joins results of further samples. Not all compounds are listed (hit frequency here may not be typical).

SMILES | NPYLR7 agonist | NPYLR7 agonist max-min
C=C(Cl)CNC(=O)/C=C/c1ccc(S(=O)(=O)NCC)cc1 | -8.5 | 680.5
O=C(c1ccc(F)c(F)c1)N1CCOC(COCc2ccccc2F)C1 (stereo unspecified) | -5.4 | -8.7
Cc1ccn2c(=O)c(C(=O)NCC(C)C)c(O)nc2c1 | 4.8 | 5.0
COc1ccccc1CN(CCc1c[nH]c2ccccc12)C(=O)CN(C(=O)Nc1cccc(C)c1C)C(C)C | 6.4 | 6.0
O=C1NCC2(CCCN(C(=O)CCc3c[nH]c4ccccc34)CC2)O1 (stereo unspecified) | -3.3 | -4.4
NC(=O)NCc1cn(C2CCN(Cc3ccc(Cl)cc3Cl)CC2)nn1 | 20.9 | 6.3
COc1cccc(C(NC(=O)C2CCN(CC(C)C)CC2)c2ccccn2)c1 (stereo unspecified) | 10.7 | -0.6
O=C(COC(=O)C=Cc1ccc2c(c1)OCO2)NC1CCCCC1 | 3.7 | -0.9
CN(Cc1ccco1)C(=O)c1ccccc1N1CCC(N)CC1 | -2.2 | 8.5
Cc1oc(-c2ccccc2)nc1Cn1c(=O)n(C(C)C)c(=O)c2ccccc21 | -1.5 | -6.3
CCC(C)CN(C)c1ccc(F)cc1CNCc1nncn1CC (stereo unspecified) | 2.5 | 1.6
Cc1nnc(NC(=O)c2cc3c(C)nn(CC(C)C)c3s2)s1 | -0.8 | -0.9
O=C(NCc1ccc2c(c1)OCO2)c1ccc(-c2ccccc2Cl)o1 | 3.9 | 9.7
CCNc1ncc(C(=O)N(CC#Cc2ccccc2)C2CCCC2)cn1 | 10.4 | 2.7
CSc1ccc(CN2CCC2(C)C(=O)NCCc2ccccn2)cc1 (stereo unspecified) | 5.7 | 4.2
CCc1c2cc(OC)c(OC)cc2cc(=O)n1N | -17.6 | -22.3
Cc1nn(C)c(C)c1S(=O)(=O)N1CCCC(CO)(Cc2ccccc2)C1 (stereo unspecified) | 6.8 | 7.4
Cc1cccn2c(=O)nc(SCC(=O)Nc3ccc(Br)cc3)nc12 | 9.3 | 5.1
CCCN1CCC(Cc2noc(-c3cnc4c(c3)nnn4C)n2)CC1 | 2.4 | 0.1
COCCN1C(=O)CC(CC(=O)N2CCCC2c2nc3ccccc3s2)(c2ccccc2F)C1=O (stereo unspecified) | 16.6 | 3.4
Cc1ccn2c(NC3CCCCC3)c(-c3ccc(OC(=O)c4cccc([N+](=O)[O-])c4)cc3)nc2c1 | 5.1 | 1.2
Cc1cc(C)c(S(=O)(=O)NC2CC(C)(C)NC(C)(C)C2)c(C)c1 | -0.3 | 4.0
CCOc1ccc(C(=O)N[C@H](C(=O)NCc2cccc(Cl)c2)C(C)C)cc1 | 6.5 | 6.8
CCCN(C)CC1CCN(S(=O)(=O)Cc2cccc(C#N)c2)C1 (stereo unspecified) | 1.8 | -1.1
Cc1cccc(Oc2cnn(-c3ccccc3Cl)c(=O)c2Nc2ccc(C(=O)NCc3cccnc3)cc2)c1 | 12.5 | 14.3
Cc1ccc(-n2c(SCC(=O)N3CCNC3=O)nc3sc4c(c3c2=O)CCC4)c(C)c1 | 1.7 | -2.6
Cc1noc(CCCC(=O)NNc2c(Cl)cc(Cl)cc2Cl)n1 | 12.1 | 10.0
O=C(O)c1cn(Cc2ccccc2)nc1OCc1ccccc1 | 1.6 | -1.4
CCc1noc(C)c1C(=O)N1CC(C)OC(C)C1 (stereo unspecified) | 5.5 | 7.2
O=c1cc(CSc2nnc(NC3CC3)s2)nc2sccn12 | 7.4 | 11.2
CCN(CC1CCCN(CCc2cccc(F)c2)C1)C(=O)C1=NN(C)C(=O)CC1 (stereo unspecified) | 2.5 | -0.5
CC(C)(C)c1ccc(S(=O)(=O)N2CCN(Cc3ccccc3)CC2)cc1 | -4.7 | -11.3
O=C(NNC(=O)C1CC(=O)N(C2CC2)C1)c1ccccn1 (stereo unspecified) | 14.1 | 9.2
Cc1ccc(S(=O)(=O)NCCSCc2ccc(Cl)cc2)cc1[N+](=O)[O-] | 1.2 | -0.9
CNC(=O)NC(=O)CN(C)Cc1ccc(SC(F)F)cc1 | -3.1 | -5.3
CC1(C)COC(c2cccn2Cc2ccc(F)cc2)=N1 | 10.0 | 0.9
O=C(OCc1ccccc1F)c1ccc(Cl)c(S(=O)(=O)N2CCCCC2)c1 | -2.3 | -8.9
CC(C(=O)NC1=NCCS1)N1C(=O)c2ccccc2S1(=O)=O (stereo unspecified) | 12.1 | 6.8
CCNC(=O)N(CCOC)Cc1nccn1Cc1ccc(C(F)(F)F)cc1 | 7.9 | 14.5
O=C(Nc1cccc2c1CCCC2)N1CCN(C(=O)C2CCS(=O)(=O)C2)CC1 (stereo unspecified) | 6.7 | 3.3

As entered above.
In NPYLR7 agonist max-min, CNC(=O)NC(=O)CN(C)Cc1ccc(SC(F)F)cc1 is listed with -5.3
In NPYLR7 agonist, CC1(C)COC(c2cccn2Cc2ccc(F)cc2)=N1 is listed with 10.0

The list continues:
SMILES | NPYLR7 agonist | NPYLR7 agonist max-min
O=C(Nc1ccc(N2CCOCC2)c2nonc12)c1cc2c(s1)CCCC2 | -0.4 | -3.7
O=C(Oc1ccc2sc(=O)oc2c1)c1cccs1 | 9.0 | 8.9
CC(=O)Nc1nc(SCC(=O)N2CCCc3ccccc32)[nH]c(=O)c1NC(=O)c1ccccc1 | -3.5 | -3.4
Cc1noc(C)c1COc1cc2ccccc2cc1C(=O)NCC1CCOC1 (stereo unspecified) | 7.7&-2.1 | 5.8&23.4
O=c1[nH]c(CSc2ccccn2)nc2c1oc1ccccc12 | 1.1 | -2.3
Cc1sc2ncn(Cc3ccccc3C#N)c(=O)c2c1-c1ccccc1 | 1.4 | -1.5
C[C@@H](C(=O)N1C[C@H]2C[C@H](O)[C@H](O)C[C@H]2C1)c1ccccc1 | 6.3 | 4.3
CN(Cc1noc(-c2ccccc2)n1)C(=O)CCNC(=O)c1ccccc1F | 23.2 | 6.0

Reformatted: entries from further up.
O=C(Oc1ccc2sc(=O)oc2c1)c1cccs1
  NPYLR7 agonist: 9.0	NPYLR7 agonist max-min: 8.9

CC(=O)Nc1nc(SCC(=O)N2CCCc3ccccc32)[nH]c(=O)c1NC(=O)c1ccccc1
  NPYLR7 agonist: -3.5	NPYLR7 agonist max-min: -3.4

Cc1noc(C)c1COc1cc2ccccc2cc1C(=O)NCC1CCOC1 (stereo unspecified)
  NPYLR7 agonist: 7.7&-2.1	NPYLR7 agonist max-min: 5.8&23.4

Ordered by length of the SMILES (rising): part of the list above.
SMILES | NPYLR7 agonist | NPYLR7 agonist max-min
O=c1[nH]c(CSc2ccccn2)nc2c1oc1ccccc12 | 1.1 | -2.3
Cc1noc(C)c1COc1cc2ccccc2cc1C(=O)NCC1CCOC1 (stereo unspecified) | 7.7&-2.1 | 5.8&23.4
C[C@@H](C(=O)N1C[C@H]2C[C@H](O)[C@H](O)C[C@H]2C1)c1ccccc1 | 6.3 | 4.3

Other structures:
SMILES | NPYLR7 agonist | NPYLR7 agonist max-min
COc1ccc(OC)c(C=CC(=O)N2CC=C(c3ccccc3)CC2)c1 | 3.9 | 0.6
CNS(=O)(=O)c1ccc(CN2CC[C@@H](c3ccc(F)cc3)[C@H](O)C2)cc1 | 12.5 | 8.5
COc1ccc(C2SCCN2S(=O)(=O)c2ccc(Br)cc2)cc1OC (stereo unspecified) | 6.7 | 1.2
Cc1cc(C)n(-c2cc(NCCNC(=O)c3sc(-c4ccccc4)nc3C)ncn2)n1 | -5.1 | -11.2
CC(Cc1ccsc1)NC(=O)N1CCc2ccccc2C1 (stereo unspecified) | -1.6 | 0.2
CC(O)CN1CCN(Cc2nnnn2C2CC2)CC1C (stereo unspecified) | 3.5 | 2.5
Cc1c(Br)c([N+](=O)[O-])nn1CC(=O)N1CCOCC1 | 3.0 | 0.8
CC1(C)C2CC=C(C=Nn3cnc4ccccc4c3=O)C1C2 (stereo unspecified) | 1.8 | 0.4
CC1=C(C(=O)N(Cc2ccsc2)CC(C)C)C(C)NC(=O)N1 (stereo unspecified) | -4.3 | -3.3
O=C1CC(NCc2cccnc2)C(=O)N1c1ccc(-c2nc3ccccc3o2)cc1 (stereo unspecified) | 14.1 | -5.2
C/C(=C\c1ccco1)CN1CCN(Cc2ccsc2)C(CCO)C1 (stereo unspecified) | 2.1 | 1.7
O=C(CCCc1ccc2[nH]c(=O)[nH]c2c1)N1CCC(N2CC=CC2)CC1 | 6.2 | 4.3
Cc1ccc(O)c(S(=O)(=O)N2CCN(C(=O)NCC3CCCC3)CC2)c1 | 4.7 | 4.5
COc1ccc(N2CCN(C(=O)c3cc(=O)c(OCc4ccc(F)cc4)c[nH]3)CC2)cc1 | 0.3 | -3.9
CCCc1noc(CSC(C)c2ccccc2Cl)n1 (stereo unspecified) | 4.1 | 3.5
CCOc1ccc(C(=O)N2CC3(CCNCC3)CC2C(=O)O)cc1OCC (stereo unspecified) | 3.4 | 2.1
CC(=O)Oc1c(-c2ccc(NC(=O)Cc3ccccc3)cc2)c(CC(C)C)nn1-c1ccc(C)cc1 | 5.8 | 4.0
O=C(c1ccccc1)N(Cc1ccccc1)[C@@H]1C[C@@H]2COCC[C@]2(c2ccccc2)C1 | 28.3 | 34.7
COc1ccc(F)c(-c2nc(OC)cc(OC)n2)c1 | 8.1 | 5.8
COc1cc(OC)cc(C(=O)NCC2Cc3cccc(F)c3O2)c1 (stereo unspecified) | 4.6 | 4.0
Cc1cc(Br)c2[nH]c(O)c(N=Nc3ccc([N+](=O)[O-])cc3)c2c1 | 23.3 | 4.7
CCOC(=O)c1cc(-c2cccc(NC(=O)c3cc(OC)cc(OC)c3)c2)n(-c2ccccc2F)n1 | 20.0 | 12.9
O=C1CSC2=NCN(c3cccc(Br)c3)CN12 | -2.0 | -3.7
Cn1nc(C2CCN(C(=O)CS(C)(=O)=O)CC2)n(Cc2ccccc2)c1=O | 2.0 | 1.7
CC(C)C(=O)N1CCC1(C)C(=O)NS(=O)(=O)c1cccs1 (stereo unspecified) | -1.0 | -1.5
CC1c2cccn2CCN1C(=O)CN(CC1CCCO1)C(=O)OC(C)(C)C (stereo unspecified) | -6.9 | -7.0
CC(C)C(=O)NC1CCN(CCc2ccc3ccccc3c2)CC1 | -9.4 | -12.8
CCc1cccc(NC(=O)C(=O)Nc2cnn(CC(=O)N(C)C)c2)c1 | 12.4 | 9.5
N#Cc1ccc(CSc2nc(N)cc(=O)[nH]2)cc1 | 5.7 | 5.2
CC(C)CN(CC(N)=O)Cc1csc(N(C)C2CC2)n1 | 3.2 | 24.2
CCOc1coc(C(=O)NCCc2ccc(Cl)cc2)cc1=O | 12.5 | 3.4
CC=CCSc1nc2c(c(=O)n(C)c(=O)n2C)n1Cc1ccccc1 | 17.4 | 8.9

For reference, some entries already given.
SMILES | NPYLR7 agonist | NPYLR7 agonist max-min
CCOc1coc(C(=O)NCCc2ccc(Cl)cc2)cc1=O | 12.5 | 3.4
CC=CCSc1nc2c(c(=O)n(C)c(=O)n2C)n1Cc1ccccc1 | 17.4 | 8.9

Next compounds follow:
SMILES | NPYLR7 agonist | NPYLR7 agonist max-min
OCCn1c(SCc2cccc3ccccc23)nc2ccccc21 | 11.0 | 12.8
COc1ccc(CCN(C)c2cc(C(C)(C)C)nc(SCc3ccc(C(=O)NCC4CCCO4)cc3)n2)cc1OC (stereo unspecified) | 7.3 | 6.0
Cc1nccn1-c1ccc(CNC(=O)c2cc(Cl)c[nH]2)cc1F | -6.4 | -7.5
CC(C)(C)c1ccc(NC(=O)c2csc(COC(=O)c3ccccc3)n2)cc1 | -6.9 | -9.4
CC(C)c1cc(C(=O)Nc2ccc(N(C)C)nc2)nn1C(C)(C)C | 5.1 | 3.7
CCc1nnc(NC(=O)C2Cc3ccccc3CN2C(=O)c2ccco2)s1 (stereo unspecified) | 3.9 | 1.4
CCCn1c(=O)c2c(nc3n(-c4ccc(O)cc4)c(C)cn23)n(C)c1=O | 3.8 | -3.1
C=Cn1cc(CN2CCC(c3nn(C)c(=O)n3-c3ccccc3)CC2)cn1 | 4.7 | 2.7
C=CCN(CC(=O)N1CCc2sccc2C1c1ccccc1C)C(=O)c1cc(C(F)(F)F)cc(C(F)(F)F)c1 (stereo unspecified) | -11.3 | -12.8
Cc1nn(CC(=O)NC2CC2)c(=O)c2cc3sccc3n12 | 7.8 | 6.4
NC(=S)NN=Cc1ccc(-c2nc3ccccc3s2)o1 | 6.7 | 8.1
CCOCCn1nc(C)cc1C(=O)N1CCOC(C(F)(F)F)C1 (stereo unspecified) | -6.7 | -9.3
O=C(CSc1nc(=O)n(Cc2cccnc2)c2c1CCC2)Nc1ccccc1 | -5.3 | -7.1
